HSD17B inhib = qHTS Assay for Inhibitors of HSD17B4, hydroxysteroid (17-beta) dehydrogenase 4; 3-hydroxyacyl-CoA dehydrogenase type-2 (Homo sapiens), Q99714; recombinant HSD17B10, NADH fluorescence kinetic; many of its hits are not listed in these tables; Potency, µM (highest dose often 57.1 µM), inactives show at the highest dose activity change, negative = inhibition, actives largely listed as inhibitors; actives 7.6% (n = 75,000); active = well fitted inhibition curve with a large enough effect; inconclusive = small, poorly fitted or top-dose-only effect; inactive = no such curve, though single readings can be large or run the other way;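 note: the protocol describes HADH2 (HSD17B10) and not the HSD17B4 of the title; nearly all actives have a fitted effect of over 70% in size; most hits overshoot -100% by far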
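Enzyme plus compound, 15 min room temperature; substrate mix added (NAD+ 1 mM, beta-hydroxybutyryl-CoA 90 uM final); plates read kinetically for NADH fluorescence. HADH2 was His-tagged, E. coli-derived, 20 nM.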
Starred values were filed as active, the others as inactive; ? = inconclusive; [ ] = dose if it differs, or a comment. % is set by controls: 0 for no effect and ±100 for the full control effect; potency is the fitted concentration of half-maximal effect. Not all compounds are listed; rates above refer to the full screens.

SMILES | HSD17B inhib
Cc1ccc(C)cc1 | 6.1%
CCN(CC)CCCNC(=O)c1cc(-c2ccc(O)cc2)on1 | -0.6%
CC(C)NC(=O)CCCc1ccccc1 | 9.3%
CC[C@H](NC(C)C)[C@H](O)c1ccc(O)c(O)c1 | 0.0%[25.6 µM]
CC(C)(C)c1nc2ccccc2c2nnc(SCC(=O)NCc3ccco3)n12 | -6.7%
Cc1cc(C)n(-c2cc(N3CCOCC3)nc(-c3ccccc3)n2)n1 | -3.2%
CCNC(=O)c1c(O)c2cccc3c2n(c1=O)CC3 | -4.7%
COc1cccc(S(=O)(=O)Nc2ccc3sc(C)nc3c2)c1 | 4.1%
O=C1c2ccccc2C(=O)N1CC1=CCS(=O)(=O)C1 | 6.7%
Cc1cc2n(n1)C(c1sccc1C)Nc1c(C)cccc1-2 (stereo not drawn) | 20µM*
O=C(C1CCCO1)N1CCC(c2nc3ccccc3[nH]2)CC1 (stereo not drawn) | -27.0%
COc1ccc(CNc2ncnc3ccc(-c4ccc(C(=O)N(C)C)cc4)cc23)c(OC)c1 | 31.6µM*
O=C(Cn1nnc2ccccc2c1=O)Nc1ccc2c(c1)CCC2 | -1.4%
N#Cc1cccc(NC(=O)N2CCCC3(CCN(C(=O)c4cc(C(F)(F)F)cc(C(F)(F)F)c4)CC3)C2)c1 | 3.3%
O=C1CC(c2ccco2)CC(O)=C1C=NCC1NCCc2ccccc21 (stereo not drawn) | -9.9%
Cc1noc(C)c1-c1nccc(NCc2cccs2)n1 | -3.7%
Cc1c(C(=O)N2CCN(C)CC2)oc2c1C(=O)CC(C)(C)C2 | 5.6%
Cc1nc2cncnc2n(Cc2ccccc2Cl)c1=O | ?
COC(=O)C1=C(C)n2cnnc2NC1c1ccc(Cl)cc1 (stereo not drawn) | 0.4%
O=CN1CCC(=O)N(Cc2ccccc2)c2ccccc21 | 1.2%
COC(C1CCCCC1)C(C)C(OCc1cccc(Br)c1)C(C)CO (stereo not drawn) | 2.2%[11.4 µM]
CCCC(C)(C)NC(=O)CCCCC(=O)NC(C)(C)CCC | 15.7%
Cc1cccc(NC(=O)CCN2CCN(C/C=C/c3ccccc3)CC2)c1 | -3.9%
CCOC(=O)CSc1nnc(-c2ccc(Cl)cc2Cl)o1 | -1.7%
CC(C)C(c1nnnn1Cc1ccc(F)cc1)N1CCSCC1 (stereo not drawn) | -7.2%
The results go on:
SMILES | HSD17B inhib
CCOC(=O)CNC(=O)CSc1nnc(Cn2cnc3ccccc32)n1C | 11.8%
COc1ccc(C(=O)NC(C)c2nnc(SCC(=O)Nc3nc4ccccc4s3)n2C)cc1 (stereo not drawn) | 6.1%
O=C(c1ccc2c(=O)n(CC3CCCO3)c(=S)[nH]c2c1)N1CCN(c2ccccc2)CC1 (stereo not drawn) | -0.6%
COc1ccc(N2CC(C(=O)Nc3ccc(N4CCOCC4)cc3)CC2=O)cc1 (stereo not drawn) | 5.9%
COc1cccc(-n2nnc3c(=O)n(CC(=O)N4CCCCC4)cnc32)c1 | -18.7%
COc1cc(OC)c(C(=O)Nc2ncn[nH]2)cc1OC | -7.9%
COc1cccc(/C=N/n2c(C)c3c(C)nnc(C)c3c2C)c1O | -9.5%
CCCn1c(SCc2cc(=O)oc3ccc4ccccc4c23)n[nH]c1=O | 25.1µM*
CCCCN1C(=O)c2ccc(C(=O)Nc3c(N)n(CCCC)c(=O)n(C)c3=O)cc2C1=O | 10.4%
O=C(CCc1nc(-c2ccccc2F)no1)NC1CCCCCC1 | 3.5%
CCOC(=O)C1=C(C)NC(C)=C(C(=O)OCC)C1C(=O)OCC(=O)c1ccc2c(c1)OCCO2 | 10.5%
Cn1c(=O)cc(OCC(=O)N2CCN(c3cccc(C(F)(F)F)c3)CC2)c2ccccc21 | -9.0%
Cc1csc2nc(CCNS(=O)(=O)c3ccc4c(c3)OCCO4)cn12 | -8.9%
O=C(NCCn1ccc2ccccc21)c1ccc2c(c1)OCO2 | 4.9%
COc1cc(OC)cc(C(=O)OCn2nnc3ccccc3c2=O)c1 | 17.0%
Cc1nc(NC(=O)c2cccnc2)ccc1Br | 3.8%
O=C(CCCn1c(SCC(=O)c2ccc(O)c(O)c2)nc2ccccc2c1=O)NCC1CCCO1 (stereo not drawn) | -24.1%
CCS(=O)(=O)NCCc1cc2c(OC)ccc(OC)c2[nH]c1=O | -4.2%
CC(=O)c1ccc(-n2nncc2C)cc1 | -6.5%
Cn1c(=O)[nH]c(=O)c2c1nc(NCCCO)n2Cc1ccc(F)cc1 | -2.6%
Cc1ccc(-c2nn(C)c(=O)c3ccccc23)cc1CO | -5.3%
CCn1c(SCC(=O)Nc2nc3c(s2)CCCC3)nnc1-c1ccccc1 | -4.8%
Cc1ccc2nnc(Cl)n2n1 | -2.5%
Cc1cccc(OCC(=O)N(Cc2cccs2)C2CCS(=O)(=O)C2)c1C (stereo not drawn) | -4.9%
CCOC(=O)c1ccc(NC(=O)COc2ccc(S(=O)(=O)NC(C)C)cc2)cc1 | -2.8%

Grouped by structure, the compounds so far with a CF3 group (two)
SMILES | HSD17B inhib
N#Cc1cccc(NC(=O)N2CCCC3(CCN(C(=O)c4cc(C(F)(F)F)cc(C(F)(F)F)c4)CC3)C2)c1 | 3.3%
Cn1c(=O)cc(OCC(=O)N2CCN(c3cccc(C(F)(F)F)c3)CC2)c2ccccc21 | -9.0%

Additional records.
SMILES | HSD17B inhib
CSc1cccc(NS(=O)(=O)c2ccccc2)c1 | 5.9%
CCC1CCCCN1C(=O)CSc1nc2c([nH]c3ccccc32)c(=O)n1C (stereo not drawn) | 31.6µM*
O=C(Cn1cccc1C(=O)c1ccccc1)NCCN1CCOCC1 | -4.9%
O=C(OCC(=O)N1CCN(C(=O)c2ccco2)CC1)c1ccccc1OCc1ccccc1 | 1.3%
Cc1cc(C)n(-c2nnc(C)n2/N=C/c2ccccc2OCc2ccccc2Cl)n1 | 25.1µM*
O=C(Nc1ccncc1)C1CCCN(S(=O)(=O)c2cccc3cccnc23)C1 (stereo not drawn) | 5.8%
Cc1cnc(CNc2nc(-c3ccoc3)nc3ccccc23)cn1 | -3.5%
C=CCSc1nc2c(c(=N)n1CC=C)C1CCCC1S2 (stereo not drawn) | 6.8%
COC(=O)[C@H](CCSC)NC(=O)Nc1ccc(OC)c(Cl)c1 | 1.4%
Cc1cc(NC(=O)CCC(=O)N(c2cccnc2)C(C(=O)NC2CCCC2)c2ccccc2F)no1 (stereo not drawn) | -5.5%
Cn1c(=O)c2c(nc(NC3CCCCC3)n2Cc2ccccc2)n(C)c1=O | ?
CCOC(=O)COc1c(OC)cc(Cl)cc1C1NC(=O)NC(C)=C1C(C)=O (stereo not drawn) | -4.7%
O=C(OCn1nnc2ccccc2c1=O)c1ccc(S(=O)(=O)N2CCOCC2)cc1 | 8.6%
CCC(c1nnnn1CCC(C)C)N1CCC(C(N)=O)CC1 (stereo not drawn) | -4.7%
COc1cccc(C(c2sc3nc(C)nn3c2O)N2CCN(C(=O)c3ccco3)CC2)c1 (stereo not drawn) | ?
O=C1CC(C2CCCO2)C(=O)N1Cc1ccccc1 (stereo not drawn) | 5.9%
COc1cc2nc(CC(C)C)n(NC(=O)c3ccccc3)c(=O)c2cc1OC | 0.4%
COc1ccc(CN2CCCCC2C(=O)Nc2ccc(OC)c(OC)c2)cc1OC (stereo not drawn) | 7.5%
COc1ccc(-c2noc(C3CCCN(C(=O)c4cccs4)C3)n2)cc1 (stereo not drawn) | -7.0%
CCOC(=O)CSc1nc2c(c(=O)[nH]c(=O)n2C)n1CCCc1ccccc1 | 4.4%
COc1cc(C(=O)OC(C)CN2CCCC2)cc(OC)c1OC (stereo not drawn) | 1.8%
CC(NS(=O)(=O)c1ccc(OCC(=O)N2CCOCC2)cc1)c1ccccc1 (stereo not drawn) | 3.0%
CCC(=O)N1Cc2ccccc2-c2ccccc2C1=O | 9.9%
Cc1cc(C)n2nc(C(=O)Nc3ccccc3N3CCOCC3)nc2n1 | 11.6%
CC(=O)Nc1cccc(OCC(=O)NS(=O)(=O)c2ccc(C)cc2)c1 | 3.3%
Additional compounds follow:
SMILES | HSD17B inhib
Cc1csc(N(C)C(=O)CSc2nnc(COc3cccc4ccccc34)o2)n1 | -1.5%
CCC(C(=O)NC(C)CCc1ccccc1)n1nc(C)n2c(cc3occc32)c1=O (stereo not drawn) | 4.6%
CC(=O)Nc1cccc(NC(=O)c2c(-c3ccccc3Cl)noc2C)c1 | 6.7%
Cc1cc2cc(C)c3nnc(SCC(=O)NCc4ccco4)n3c2cc1C | -11.9%
Cc1cc2cc(CNC(=O)c3cccs3)ccc2n1C | -10.0%
O=C(Cc1nc2ccccc2s1)c1ccc(O)cc1O | 25.1µM*
COCCNC(=O)CSc1nc2cc(OC)c(OC)cc2c(=O)n1Cc1ccc(OC)cc1 | 11.9%
CCN(c1ccccc1)S(=O)(=O)c1ccc(Oc2ccc(-n3ccnc3)cc2)nc1 | -3.0%
CCOC(=O)c1c(NC(=O)c2ccco2)sc2c1CCCC2 | 3.16µM*
COc1ccc(N(C)S(=O)(=O)c2ccc3c(c2)CCC(=O)N3)cc1 | -3.7%
CC1=C(C(=O)Nc2ccccc2)C(c2ccc(C)o2)n2ncnc2N1 (stereo not drawn) | -1.7%
COc1ccccc1CNc1nc2nc(C)cc(=O)n2[nH]1 | 14.9%
O=C(Nc1cccc(F)c1)c1ccc2c(c1)OCO2 | 15.1%
c1ccc(-c2nnc(CSc3nc4ccccc4[nH]3)o2)cc1 | -2.2%
O=C(Cc1cn2ccsc2n1)Nc1cccc2cnccc12 | -3.5%
COc1ccc(OC)c(NC(=O)CSc2nc3ccccc3c(=O)n2CCNC(C)=O)c1 | 2.7%
COc1ccc(NC(=O)CN2CCC(C(N)=O)CC2)cc1 | 8.3%
CCOC(=O)COc1ccc(S(=O)(=O)NCc2ccco2)cc1 | 0.8%
CN1C(=O)C2CN(CCc3ccccc3)CNC2N(C)C1=O (stereo not drawn) | 2.8%
CCOc1ccc2[nH]c(=O)c(C(c3nnnn3CCOC)N3CCOCC3)cc2c1 (stereo not drawn) | 10µM*
COc1ccccc1CC(=O)NCCc1ccc(S(N)(=O)=O)cc1 | -3.3%
CCC(=O)Nc1ccc(NC(=O)c2cc3ccccc3o2)cc1 | -2.1%
O=C(CC(=O)Nc1ccccn1)Nc1ccccn1 | 1.8%
Cc1cc(NC(=O)CSc2ccccc2)no1 | -1.8%
Cc1cccc(NS(=O)(=O)c2cc(C(=O)OCC(=O)Nc3cc(C)on3)ccc2C)c1 | 2.6%
Additional records:
SMILES | HSD17B inhib
COc1cc(O)cc(OC)c1OC | 4.6%
O=C(c1cnccn1)N1CCC2(CC1)CCN(C(c1ccccc1)c1ccccc1)CC2 | -12.6%
O=C(O)[C@@H]1CCCN1Cc1c[nH]c2ccccc12 | -0.2%[11.4 µM]
Cc1c(C(=O)OCC(=O)N2CC(C)OC(C)C2)oc2ccc(Br)cc12 (stereo not drawn) | -9.7%
N#CC1=C(N)N(c2ccccc2)C2=C(C(=O)CCC2)C1c1ccsc1 (stereo not drawn) | ?
COC(=O)c1nonc1NCn1nnc2ccccc21 | 11.6%
CC(=O)C1=C(C)OC(N)=C(C#N)C1c1ccncc1 (stereo not drawn) | 6.6%
CCCCCC1CC(CC(=O)O)C(=O)O1 (stereo not drawn) | 3.4%

Grouped by structure, the entries above with a halogen
SMILES | HSD17B inhib
N#Cc1cccc(NC(=O)N2CCCC3(CCN(C(=O)c4cc(C(F)(F)F)cc(C(F)(F)F)c4)CC3)C2)c1 | 3.3%
Cc1nc2cncnc2n(Cc2ccccc2Cl)c1=O | ?
COC(=O)C1=C(C)n2cnnc2NC1c1ccc(Cl)cc1 (stereo not drawn) | 0.4%
COC(C1CCCCC1)C(C)C(OCc1cccc(Br)c1)C(C)CO (stereo not drawn) | 2.2%[11.4 µM]
CCOC(=O)CSc1nnc(-c2ccc(Cl)cc2Cl)o1 | -1.7%
CC(C)C(c1nnnn1Cc1ccc(F)cc1)N1CCSCC1 (stereo not drawn) | -7.2%
O=C(CCc1nc(-c2ccccc2F)no1)NC1CCCCCC1 | 3.5%
Cn1c(=O)cc(OCC(=O)N2CCN(c3cccc(C(F)(F)F)c3)CC2)c2ccccc21 | -9.0%
Cc1nc(NC(=O)c2cccnc2)ccc1Br | 3.8%
Cn1c(=O)[nH]c(=O)c2c1nc(NCCCO)n2Cc1ccc(F)cc1 | -2.6%
Cc1ccc2nnc(Cl)n2n1 | -2.5%
Cc1cc(C)n(-c2nnc(C)n2/N=C/c2ccccc2OCc2ccccc2Cl)n1 | 25.1µM*
COC(=O)[C@H](CCSC)NC(=O)Nc1ccc(OC)c(Cl)c1 | 1.4%
Cc1cc(NC(=O)CCC(=O)N(c2cccnc2)C(C(=O)NC2CCCC2)c2ccccc2F)no1 (stereo not drawn) | -5.5%
CCOC(=O)COc1c(OC)cc(Cl)cc1C1NC(=O)NC(C)=C1C(C)=O (stereo not drawn) | -4.7%
CC(=O)Nc1cccc(NC(=O)c2c(-c3ccccc3Cl)noc2C)c1 | 6.7%
O=C(Nc1cccc(F)c1)c1ccc2c(c1)OCO2 | 15.1%
Cc1c(C(=O)OCC(=O)N2CC(C)OC(C)C2)oc2ccc(Br)cc12 (stereo not drawn) | -9.7%

Source: PubChem BioAssay
